StopGo reporter: High Throughput Screening for Foot and Mouth Disease Virus Antivirals; human cells with a luciferase reporter of 2A StopGo recoding; control for the full effect not named in the record; Potency, µM (highest dose often 57.9 µM), for inactives: at the highest dose signal change, negative = less light; 1.2% of 410,000 active; AID 1159524, 2015; active = well fitted falling curve with a large enough effect; inconclusive = small, poorly fitted or top-dose-only effect; inactive = no such curve, though single readings can be large or run the other way; tested in HEK293T cells; also: % is scaled to controls: 0 for no effect and ±100 for the full control effect; nearly all actives have a fitted effect of over 45% in size; luciferase light after 4 h
NS1 function inh: qHTS Assay for Inhibitors of Influenza NS1 Protein Function | 0.4% of 270,000 active | S. cerevisiae slowed by influenza A NS1, growth recovery by OD600 | Potency, µM (doses to about 46.1 µM), for the others: top-dose activity, positive = more growth | AID 2326, 2010; also: actives are rising curves; nearly all actives have a fitted effect of over 50% in size
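A cell-based growth assay was used: compounds that relieve NS1-induced slow growth of budding yeast raise OD600. Assay medium was yeast nitrogen base with ammonium sulphate and -URA supplement, pH 6.0, with 2% galactose.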
Cruzain noTriton: qHTS Assay for Promiscuous and Specific Inhibitors of Cruzain (without detergent); purified cruzain, Z-FR-AMC fluorescence, no detergent; 2.3% of 200,000 active; Potency, µM, for the others: max response, negative = inhibition, usual class: inhibitors; Cruzipain (Trypanosoma cruzi), P25779; active = well fitted curve in the direction sought with a large enough effect; inconclusive = small, poorly fitted or top-dose-only effect, or another doubt; inactive = no such curve, though single readings can be large; an effect the other way counts as inactive or inconclusive;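 also: plate controls were enzyme without inhibitor for no effect and buffer without enzyme for full effect; nearly all actives have a fitted effect of over 40% in size; top concentration of the series not given in the record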
Target sequence (P25779 123-467 limits assumed): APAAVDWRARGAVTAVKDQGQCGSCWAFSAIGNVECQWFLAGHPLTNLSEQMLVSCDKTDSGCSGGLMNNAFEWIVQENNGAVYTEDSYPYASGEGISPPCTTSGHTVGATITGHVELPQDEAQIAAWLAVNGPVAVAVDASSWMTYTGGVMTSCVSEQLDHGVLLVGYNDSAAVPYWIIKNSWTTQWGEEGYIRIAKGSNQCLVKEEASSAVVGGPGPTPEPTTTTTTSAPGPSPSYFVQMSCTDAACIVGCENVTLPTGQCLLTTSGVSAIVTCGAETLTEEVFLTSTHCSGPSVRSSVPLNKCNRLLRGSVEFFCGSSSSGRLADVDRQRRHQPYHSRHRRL
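Detergent-free condition (0.00005% Triton X-100) in acetate buffer pH 5.5 with DTT. 1.5 nM enzyme and compound were pre-mixed 15 min, then 2 uM Z-FR-AMC substrate added; reaction progress from fluorescence change between first and third reads (60 s).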
Marburg entry inh: qHTS for inhibitors of binding or entry into cells for Marburg Virus; Marburg virus pseudotyped entry inhibition, cell reporter; control for the full effect not named in the record; about a third of the inactives were read at about 46 µM; Potency, µM (series often up to 37.8 µM), without a hit: top-dose activity change, negative = inhibition, hits mostly inhibitors; 1.8% of 300,000 active; active = well fitted inhibition curve with a large enough effect; inconclusive = small, poorly fitted or top-dose-only effect, or effect the other way; inactive = flat fitted curve, though single readings scatter; tested in HEK293 cells; about a fifth of its hits are not listed in these tables; also: % is scaled to controls: 0 for no effect and ±100 for the full control effect; luciferase read-out
RE007 growth inh: qHTS Assay for Inhibitors of the HIV-1 protein Vpr | S. pombe RE007 Vpr strain, BacTiter-Glo ATP luminescence, 24 h; control for the full effect not named in the record | Potency, µM (top dose mostly 92.2 µM), for inactives: top-dose activity change, negative = less growth | AID 651644, 2012 | 0.21% of 360,000 active; active = well fitted falling curve with a large enough effect; inconclusive = small, poorly fitted or top-dose-only effect; inactive = no such curve, though single readings can be large or run the other way;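 also: % is scaled to controls: 0 for no effect and ±100 for the full control effect; nearly all actives have a fitted effect of over 50% in size; the assay follows cell death caused by Vpr and the record does not say whether a fall means rescue or toxicity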
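Fission yeast strain RE007, carrying one chromosomally integrated HIV-1 vpr copy, was seeded at OD 0.01 in PMG+AL medium with 23 nL pinned compound. After 24 h at 30 °C and 99% humidity, viability was read by BacTiter-Glo luminescence.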
Lassa entry inh: qHTS for Inhibitors of binding or entry into cells for Lassa Virus | 1.2% of 300,000 active | Potency, µM (doses to about 37.9 µM), for inactives: at the top dose activity change, negative = inhibition, hits mostly inhibitors | AID 540256, 2011 | Lassa virus pseudotype entry inhibition, cell reporter; control for the full effect not named in the record; active means well fitted inhibition curve with a large enough effect; inconclusive means small, poorly fitted or top-dose-only effect, or effect the other way; inactive means flat fitted curve, though single readings scatter; tested in HEK293 cells; also: % is scaled to controls: 0 for no effect and ±100 for the full control effect; nearly all actives have a fitted effect of over 50% in size; luciferase read-out
Cruzain inh Det: qHTS Assay for Promiscuous and Specific Inhibitors of Cruzain (with detergent). 0.43% of 200,000 active. purified cruzain, Z-FR-AMC fluorescence, 0.01% Triton. Potency, µM, without a hit: max response, negative = inhibition, most hits filed as inhibitors. AID 1478, 2009. Cruzipain (Trypanosoma cruzi), P25779; active = well fitted curve in the direction sought with a large enough effect; inconclusive = small, poorly fitted or top-dose-only effect, or another doubt; inactive = no such curve, though single readings can be large; an effect the other way counts as inactive or inconclusive;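 also: plate controls were neutral wells for no effect and buffer without enzyme for full effect; nearly all actives have a fitted effect of over 40% in size; top concentration of the series not given in the record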
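Z-FR-AMC hydrolysis (2 uM substrate) by cruzain (1.5 nM) monitored kinetically at ex 360/em 450 nm after 15 min room-temperature compound exposure; 0.01% Triton X-100, pH 5.5, 5 mM DTT.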
SARS PLpro yeast: qHTS of Yeast-based Assay for SARS-CoV PLP; S. cerevisiae expressing SARS-CoV PLpro, growth rescue; control for the full effect not named in the record; Potency, µM (series often up to 32.9 µM), for the others: at the top dose activity, positive = growth rescue; 0.19% of 330,000 active; also: 0% is about no effect; nearly all actives have a fitted effect of over 55% in size; growth read by luminescence after 48 h
Numbers without * were called inactive; ? = inconclusive; nt = not tested or not shown; & = joins results of further samples; [ ] = another dose, or the depositor's remark. Unless noted, calls follow the shape of the dose curve; as a rule, active means well fitted rising curve with a large enough effect; inconclusive means small, poorly fitted or top-dose-only effect; inactive means no such curve, though single readings can be large or run the other way. Potency is read from the fitted curve at half-maximal effect.

SMILES	StopGo reporter	NS1 function inh	Cruzain noTriton	Marburg entry inh	RE007 growth inh	Lassa entry inh	Cruzain inh Det	SARS PLpro yeast
O=C1CCC/C1=C/Nc1cccc(F)c1	0%	0%	nt	17%	-10%	6%	nt	-1%
CC(=O)CC1(O)C(=O)N(Cc2ccccc2)c2ccccc21 (stereo not drawn)	-9%	3%	-3%	-14%	16%	?	1.3%	2%
CCC(=NC1CC1)c1c(O)n(-c2ccc(OC)cc2)c(=O)[nH]c1=O	-24%	-1%	-8%	7%	14%	?	0.0%	-1%
Cc1ccc(CNC(=O)c2cnc3c(-c4ccccc4)c(C)nn3c2C)o1	-21%	nt	-6%	nt	nt	25%[46.1 µM]	-5.3%	nt
Cc1nc(Oc2ccccc2C)c2oc3ccccc3c2n1	?	nt	?	nt	nt	-14%[46.1 µM]	-2.8%	nt
CC(=O)C(Cc1cnc(Cl)s1)(Cc1cnc(Cl)s1)C(C)=O	0%	4%	8%	21%[46.1 µM]	-4%	11%	-0.1%	1%
CCOC(=O)C1=C(C(F)(F)F)Nc2ncnn2C1c1ccc(OC)c(OC)c1OC (stereo not drawn)	-10%	1%	10%	?	14%	-4%	0.8%	20%
c1ccc(Cc2nnc3sc(-c4ccccn4)nn23)cc1	0%	-72%	-14%	1%&8%	0%	6%	1.6%	-4%
O=C1/C(=C/c2ccc(F)cc2)SC(=S)N1CC(=O)N1CCCCC1c1cccnc1 (stereo not drawn)	-1%	-68%	nt	nt	12%	nt	nt	-6%
COc1ccc(CCNC(=O)Cc2cccc(C(F)(F)F)c2)cc1OC	8%	-12%	nt	11%[46.1 µM]	0%	2%	nt	0%
O=C(CN(CCc1ccccc1)S(=O)(=O)c1ccc(Br)cc1)N/N=C/c1ccccc1C(=O)O	-2%	nt	nt	-5%[46.1 µM]	19%	-7%[46.1 µM]	nt	-3%
COc1ccc(C2c3c(n(C)c4ccccc34)C(=O)N2CC(=O)Nc2ccccc2Cl)cc1 (stereo not drawn)	-5%	nt	?	nt	nt	-14%[46.1 µM]	-0.9%	nt
CCS(=O)(=O)N1CCN(c2nc(-c3ccccc3)cs2)CC1	2%	4%	-18%	1%	-26%	0%	-1.5%	-5%
CC(OC(=O)c1ccc(NC(N)=O)cc1)C(=O)Nc1ccc2c(c1)OCCO2 (stereo not drawn)	-14%	nt	nt	8%[46.1 µM]	3%	4%[46.1 µM]	nt	-17%
Nn1c(COc2ccccc2F)nnc1SCC(=O)NC1CCCCC1	3%	nt	nt	-3%	-27%	0%[46.1 µM]	nt	0%
c1ccc(CN2CCN(c3ncccn3)CC2)cc1	-15%	-7%	nt	7%	7%	23%	nt	2%
COCCCn1c(SCC(=O)NCc2ccccc2)nc2ccccc2c1=O	nt	-2%	-7%	-7%	5%	2%	-2.7%	-12%
Cc1ccc(NC(=O)CSc2nc(-c3cccs3)nc3cc(=O)[nH]n23)cc1	-17%	nt	9%	nt	nt	12%[46.1 µM]	2.8%	nt
CCCc1cc(C(=O)NC2CCCCC2)no1	55%[activator]	-16%	19%	nt	-7%	nt	7.8%	18%
Cc1ccc(S(=O)(=O)NCCC(=O)NCC(c2ccco2)N2CCCCC2)cc1C (stereo not drawn)	-1%	nt	nt	?	-5%	-2%	nt	4%
COc1ccc(C(C(=O)NC2CCCC2)N(C(=O)c2snc(-c3ccc(F)cc3)c2N)c2ccc(OC)cc2)cc1 (stereo not drawn)	31%[activator]	2%	25µM*	-20%	2%	-6%	1.7%	1%
COc1ccccc1NC(=O)CSc1ccc(-c2ccccn2)nn1	3%&-8%	-118%	0%	?	3%	?	-4.7%	-19%
CC1=NN(c2ccc(C)cc2C)C(=O)C1C(c1ccccc1O)C1C(=O)N(c2ccc(C)cc2C)N=C1C (stereo not drawn)	-24%	22%	4%	0%	-1%	5%	-2.5%	6%
COc1cccc(C2C(C(=O)c3ccc(C)o3)=C(O)C(=O)N2CCN2CCOCC2)c1OC (stereo not drawn)	0%	-10%	nt	24%	0%	10%	nt	-1%
COc1c(F)c(F)c(C(=O)O)c(Nc2cc(C)cc(C)c2)c1F	-5%	nt	nt	22%[46.1 µM]	-16%	16%	nt	1%
Next results follow:
SMILES	StopGo reporter	NS1 function inh	Cruzain noTriton	Marburg entry inh	RE007 growth inh	Lassa entry inh	Cruzain inh Det	SARS PLpro yeast
Cc1c(Cl)cccc1NC(=S)N(Cc1cccnc1)Cc1ccccc1Cl	-12%	7%	nt	?	0%	-24%	nt	-15%
CCN1C(=O)c2ccc(C(=O)NCc3ccccc3)cc2C1=O	-10%	3%	-18%	-16%[46.1 µM]	13%	1%	-4.6%	-5%
Cc1ccc(Cl)cc1N1CCN(C(=O)COc2ccc(S(=O)(=O)NC(C)C)cc2)CC1	?	9%	-3%	nt	14%	nt	-3.1%	-3%
CN1CCN(c2nc3ccccc3o2)CC1	5%	-5%	nt	nt	1%	nt	nt	-1%
CC1CCN(C(=O)CSc2nncn2C)CC1	-23%	7%	-9%	15%	9%	1%	4.8%	6%
COc1ccc(CCNC(=O)COC(=O)/C=C/c2ccc(OCC#N)c(OC)c2)cc1OC	-19%	26%	?	-2%	-7%	-7%	-7.8%	?
Cc1ccc(CCNC(=O)c2cc3c(=O)n(C)c4ccccc4c3n2C)cc1	-20%	nt	5%	4%[46.1 µM]	nt	-23%[46.1 µM]	-0.7%	nt
CSc1ncccc1C(=O)OCC(=O)c1ccccc1Br	20%	nt	nt	6%[46.1 µM]	-7%	16%	nt	0%
COc1ccc(/C=N/N2C(=O)CSC2=S)cc1	nt	2%	-27%	?	-10%	?	-3.0%	nt
Cc1ccc(C2CC(=O)C=C(NCC(C)C)C2)cc1 (stereo not drawn)	-16%	-5%	-2%	-10%	-4%	-7%	-1.4%	-9%
CC1Cc2ccccc2N1C(=O)CSc1nc2c(c(=O)n(C)c(=O)n2C)n1Cc1ccc(F)cc1 (stereo not drawn)	-13%	nt	nt	16%	2%	9%	nt	nt
CCC(Oc1ccc(C)cc1)C(=O)Nc1ccc2c(c1)n(C)c(=O)n2C (stereo not drawn)	-19%	8%	nt	0%	-5%	?	nt	-2%
CC(=O)CC(=O)Nc1ccc(Nc2ccccc2)cc1	16%	?	4%	15%	13%	6%	-4.6%	0%
CCOCCCN1C(=O)CN(C2CCC(C)CC2)C(=O)C1c1ccc(C)cc1 (stereo not drawn)	-13%	nt	nt	?	-6%	-26%	nt	-2%
O=C1C2C3C=CC(C3)C2C(=O)N1CCC(=O)N1CCc2ccccc21 (stereo not drawn)	14%	2%	2%	20%	-8%	?	-2.8%	10%
CNC(=S)NNC(=O)c1cccc(C(F)(F)F)c1	9%	17%	1%	1%	-4%	-8%	6.3%	-1%
COc1cc(Cl)c(C)cc1NC(=O)CCc1nc2cccnc2n1Cc1cccs1	-25%	nt	-9%	?	nt	-3%[46.1 µM]	3.7%	nt
CC(=O)c1oc2ccccc2c1NC(=O)CCCN1C(=O)c2ccccc2C1=O	0%	0%	15%	-2%	12%	nt	-0.2%	12%
CCOC(=O)Cc1csc(NS(=O)(=O)Cc2ccccc2)n1	14%	-2%	-9%	2%[46.1 µM]	38%	-2%	1.8%	3%
CC(=O)c1cccc(S(=O)(=O)Nc2cccnc2)c1	20%	-5%	nt	-2%[46.1 µM]	-7%	2%	nt	-13%
CC(C)c1cc(NC(=O)C(C)(C)C)cc(C(C)C)c1O	-4%	-34%	-4%	29%[46.1 µM]	-13%	?	3.3%	3%
COCCCn1c(C)cc(C(=O)COC(=O)C23CC4CC(CC(O)(C4)C2)C3)c1C	-1%	nt	nt	-8%	12%	-7%	nt	0%
CN1C(=O)CCC1(O)c1ccccc1 (stereo not drawn)	9%	5%	2%	-26%	18%	4%	0.7%	-2%
Cc1cccc(C(=O)OCC(=O)NCCCc2ccccc2)c1O	4%	-5%	nt	nt	-1%	nt	nt	-3%
COc1ccc(OC)c(-n2nnnc2SCC(=O)Nc2ccc3c(c2)OCCO3)c1	nt	0%	-1%	-18%	-10%	1%	0.3%	-4%
The list goes on.
SMILES	StopGo reporter	NS1 function inh	Cruzain noTriton	Marburg entry inh	RE007 growth inh	Lassa entry inh	Cruzain inh Det	SARS PLpro yeast
CC(C)(C)OC(=O)N1CCC(C(=O)N2CCOCC2)CC1	-10%	2%	8%	6%	15%	-6%	4.3%	9%
CCOC(=O)c1cn(CC(=O)Nc2ccc(CC)cc2)nn1	-16%	-10%	0%	0%	14%	-23%	2.3%	4%
CN1C(=O)C2(c3ccccc31)c1c(oc3ccccc3c1=O)C(=O)N2CCCO (stereo not drawn)	-10%	3%	nt	-10%	-11%	-1%	nt	0%
COc1ccccc1NC(=O)COC(=O)Cc1cccs1	-3%	nt	nt	9%[46.1 µM]	6%	-4%	nt	-1%
COc1ccc(-c2[nH]c(-c3ccc(F)cc3)nc2SCC(=O)Nc2ccc(OC)c(OC)c2)cc1	-15%	nt	15%	?	nt	-27%[46.1 µM]	-5.2%	nt
CCc1cccc(NC(=O)CCc2c(C)nn(-c3ccc(N4CCOCC4)nn3)c2C)c1	5%	2%	nt	0%[46.1 µM]	-1%	0%[46.1 µM]	nt	1%
Cc1nn(C)cc1/C=N/NC(=O)C1(O)c2ccccc2-c2ccccc21	0%	10%	1%	8%	5%	-5%	-1.9%	-1%
COc1cccc(CNC(=O)C(CCSC)NS(=O)(=O)c2ccc3c(c2)oc(=O)n3C)c1 (stereo not drawn)	-10%	-3%	-10%	5%&5%[46.1 µM]	4%	2%	2.9%	4%
O=C(NC12CC3CC(CC(C3)C1)C2)N1CCN(c2nc(-c3ccccc3)cs2)CC1	25µM*	26%	?	?	10%	?	-0.1%	-1%
CCCCn1c(N)c(N(CCC(C)C)C(=O)c2ccc([N+](=O)[O-])s2)c(=O)[nH]c1=O	-19%	nt	nt	-22%[46.1 µM]	12%	7%	nt	-4%

Bioassay records (PubChem)
